PINK1 modulator = modulators of PINK1 expression. 0.2% of 410,000 active. Potency, µM (doses to about 76.6 µM), for the others: top-dose activation (PINK1 increase), hits mostly activators. PINK1 immunofluorescence, high-content cytometry, 24 h. AID 624263; active = well fitted activation curve with a large enough effect; inconclusive = small, poorly fitted or top-dose-only effect; inactive = flat fitted curve, though single readings scatter; cell line not stated here;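 also: potency is read from the fitted curve at half-maximal effect; % of control where 0% means no effect; nearly all actives have a fitted effect of over 65% in size; a mitochondrial uncoupler was the plate control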
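PINK1 protein, normally rapidly degraded, was detected by immunofluorescence after 24 hour compound treatment of a stable cell line. Titration data (5 concentrations) came from laser-scanning cytometry, with CCCP-treated wells as controls.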
TRPV1 potentiator = enhances activation of the human vanilloid receptor TRPV1; AID 540277; 0.02% of 320,000 active; potentiation, % at 8.33 µM; TRPV1-expressing cells, Fluo-8 calcium influx, capsaicin EC20 potentiation; host cell line not named in the record; control for the full effect not named in the record; active means potentiation above 80%; inconclusive means 30% to 80%; inactive means below 30%; also: 0% is about no effect
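Fluo-8 calcium influx in TRPV1-expressing cells, kinetic read (ex 480/em 520 nm). Compound added and read 3 min for agonist activity, followed by capsaicin at EC20 final and 2 min further read for enhancement.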
D2 potentiator = human D2 receptor positive allosteric modulation; P14416; DiscoveRx D2 beta-arrestin cells, luminescence, 90 min; 100% = 57 uM dopamine signal; potentiation, % (test concentration not listed); 0.23% of 360,000 active; active = potentiation of 50% or more; inconclusive = 30% to 50%; inactive = 30% or less;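 also: compound concentration not given in the record; tested on top of an EC20 dose of dopamine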
Target sequence (P14416 whole entry, looked up): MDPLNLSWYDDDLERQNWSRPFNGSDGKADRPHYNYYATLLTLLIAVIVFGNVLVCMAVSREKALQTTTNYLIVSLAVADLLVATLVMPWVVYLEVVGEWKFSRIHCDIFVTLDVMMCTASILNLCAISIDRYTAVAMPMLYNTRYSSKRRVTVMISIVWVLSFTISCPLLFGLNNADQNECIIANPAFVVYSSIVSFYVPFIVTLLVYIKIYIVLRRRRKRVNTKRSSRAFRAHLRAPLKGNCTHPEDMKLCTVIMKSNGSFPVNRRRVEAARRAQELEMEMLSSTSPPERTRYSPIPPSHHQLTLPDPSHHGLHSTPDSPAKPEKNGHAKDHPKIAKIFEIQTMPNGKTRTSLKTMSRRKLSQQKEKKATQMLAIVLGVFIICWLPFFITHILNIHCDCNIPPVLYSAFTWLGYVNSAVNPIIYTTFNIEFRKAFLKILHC
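PathHunter beta-arrestin assay in DiscoveRx D2 cells. Compounds were added with an EC20 of dopamine (50 nM final) for 90 min at 37 deg C. Luminescence was read 1 h after detection reagent, with 57 uM dopamine as the EC100 control.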
Six1-Eya2 blk = inhibitors of human Six1/Eya2 interaction; Q15475+O00167; AlphaScreen GST-Six1/His-Eya2 binding, biochemical; stronger effect = lower value; control for the full effect not named in the record; activity change, % (concentration not given with the values); 0.56% of 360,000 active; in the data active = activity change below about -65%; inconclusive = about -30% to -65%; inactive = above about -30%; also: % is scaled to controls: 0 for no effect and ±100 for the full control effect
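GST-Six1 + His-Eya2 (5X stock: 250/500 nM); Tris pH 8.0, 300 mM NaCl, 0.05% BSA, 0.02% Tween 20; GSH donor/Ni acceptor beads; 1 h 37 °C dark; AlphaScreen readout.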
Sfp PPTase inh = blocks B. subtilis Sfp PPTase activity; Q9F4F7; Biochemical Sfp PPTase activity, qHTS; Potency, µM, for inactives: max response, negative = inhibition, usual class: inhibitors; 3.5% of 310,000 active; AID 1490; active = well fitted inhibition curve with a large enough effect; inconclusive = small, poorly fitted or top-dose-only effect, or another doubt; inactive = no such curve, though single readings can be large or run the other way;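 also: the enzyme is Sfp with the accession as filed and its product quenches rhodamine fluorescence; potency is read from the fitted curve at half-maximal effect; 0% = enzyme reaction without inhibitor and -100% = no enzyme wells; top concentration of the series not given in the record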
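Fluorescence-quenching assay with 15 nM Sfp, 5 uM rhodamine-CoA and 12.5 uM BHQ-2-labelled ybbR peptide in pH 7.6 Hepes/MgCl2 buffer. Enzyme was pre-incubated with compound for 15 min at room temperature. Rate was taken from the 30-min fluorescence change (525/598 nm).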
D2 agonist = agonists of human D2 dopamine receptor (beta-arrestin) | DiscoveRx PathHunter D2 beta-arrestin, luminescence, 90 min; 100% = 57 uM dopamine signal | activation, % (test concentration not listed) | 0.084% of 360,000 active; in the data active = activation above about 40%; inconclusive = about 15% to 40%; inactive = below about 15%; also: compound concentration not given in the record; the text of the record calls up to 30% inactive
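DiscoveRx PathHunter D2 beta-arrestin cells (2,100/well) attached overnight, then compound-stimulated 90 min at 37 C in HBSS/10 mM HEPES/0.1% Tween-20 buffer; beta-galactosidase complementation read by luminescence after 1 h at ambient temperature. Dopamine 57 uM final (EC100) as control.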
CtBP-E1A inh = CtBP/E1A binding inhibition; AlphaScreen GST-E1A/His-CtBP binding, 1536-well; stronger effect = lower value; control for the full effect not named in the record; activity change, % (no concentration beside the values); 0.49% of 340,000 active; AID 651724; in the data active means activity change below about -65%; inconclusive means about -30% to -65%; inactive means above about -30%; also: % is scaled to controls: 0 for no effect and ±100 for the full control effect; compound concentration not given in the record
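GST-E1A and His-tagged CtBP (125 nM each as 5X stock) were preincubated with pin-transferred compound for 2 h at 37 °C in the dark, then glutathione donor and nickel acceptor beads were added for 1 h before AlphaScreen reading.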
* hit, by the source's call; ? = inconclusive; . = not tested or not shown; [ ] = another dose, or the depositor's remark.

SMILES | PINK1 modulator | TRPV1 potentiator | D2 potentiator | Six1-Eya2 blk | Sfp PPTase inh | D2 agonist | CtBP-E1A inh
Cc1ccc2c(c1)COc1c3ccc(C(=O)N[C@@H](C)CO)cc3nn1-2 | 0.1% | 11 | -1 | 1 | -12% | -1.1 | -1
CC(C)Cc1cc(C(=O)Nc2cc(Br)ccc2O)no1 | 45µM* | ? | -12 | 0 | 15% | 1.8 | -5
CCOC(=O)c1oc2ccccc2c1COC(=O)CNC(=O)c1cccc(C)c1 | -0.8% | 0 | -15 | -3 | 7% | 1.4 | 5
CCOc1cc(N2CCOCC2)c(OCC)cc1NC(=O)CSc1nnc(N)s1 | -0.1% | . | 1 | 8 | . | 3.8 | 0
C=CCSc1nnc(NC(=O)C23CC4CC(CC(NC(C)=O)(C4)C2)C3)s1 | 0.0% | -2 | 5 | 1 | 6% | 0.6 | 2
COc1ccc(C(=O)Nc2ccc(C)c(S(=O)(=O)N3CCOCC3)c2)cc1S(=O)(=O)N1CCCC1 | 2.3% | . | -6 | -17 | . | 0.1 | 4
CC(=O)NC1(NC(C)=O)CCN(C)C(c2ccccc2)C1C (stereo not given) | -2.4% | -5 | -2 | 11 | -3% | -0.8 | 2
O=C(NCc1ccccc1)C(Cc1ccccc1)NS(=O)(=O)c1cccc2nsnc12 (stereo not given) | 1.4%[38.3 µM] | -1 | 3 | 2 | 1% | -1.4 | 9
COc1cc(/C=N/NS(=O)(=O)c2ccccc2)ccc1OS(=O)(=O)c1ccc(C)cc1 | -1.7% | -6 | -14 | 1 | 12% | -0.8 | 0
COc1ccc(C2CC(c3ccc([N+](=O)[O-])cc3)=NN2C(C)=O)cc1 (stereo not given) | 0.6% | 11 | 1 | -4 | 1% | 7.7 | -19
CCN(CC)S(=O)(=O)c1ccc2c(c1)c(=O)c(C(=O)N1CCc3ccccc3C1)cn2C | 13%[38.3 µM] | 0 | -3 | 7 | 4% | -1.7 | 8
COc1cccc(CN2CCNC(=O)C2CC(=O)NCCN2CCOCC2)c1OC (stereo not given) | 2.6% | -1 | -7 | -2 | 22% | -1.9 | 4
Cc1cc(NC(=O)c2cccc(S(=O)(=O)N3CCCCCC3)c2)no1 | 4.9%[38.3 µM] | 3 | -5 | -5 | 13% | 1.1 | -10
CC(=O)c1c(C)[nH]c(C(=O)N2CCc3ccccc3C2)c1C | -1.9% | -21 | -18 | 8 | 11% | 0.3 | 9
O=C(Nc1ccc2c(c1)oc1ccccc12)c1ccc2c(c1)OCO2 | 10%[38.3 µM] | -3 | -12 | -1 | 20% | -1.7 | 7
CCSc1ccccc1C(=O)NCc1ccco1 | 0.2%[38.3 µM] | 12 | -16 | 0 | 15% | -2.6 | 3
Cc1c(Cl)c(C(=O)N2CCCc3ccccc32)nn1C | -0.7% | -12 | -5 | -1 | 4% | -0.7 | 0
CN(CC(=O)Nc1ccc(N2CCOCC2)cc1)C(=O)CCc1cc(C(C)(C)C)c(O)c(C(C)(C)C)c1 | -0.5% | -6 | -11 | -18 | . | -7.1 | 0
COc1cc(/C=N/NC(=O)C(=O)NCC2CCCO2)ccc1OCC(=O)N1CCOCC1 (stereo not given) | 3.0% | 4 | 20 | 6 | 11% | 1.7 | 17
OC(c1ccccc1)c1ncc(-c2ccccc2Cl)[nH]1 (stereo not given) | 0.7% | . | -7 | -5 | . | -2.0 | -5
COc1ccc(N(CC(=O)NCc2ccc3c(c2)OCO3)C(=O)c2csnn2)cc1 | 1.5% | 7 | -3 | 0 | 11% | -3.1 | 0
COc1ccc(C(=O)CSc2nnc(CNC(=O)c3ccc(OC)cc3)n2C)cc1 | -5.3%[38.3 µM] | 6 | 0 | 3 | -10% | 1.0 | 6
COc1ccc(N2CC(C(=O)Nc3nnc(SCC(=O)NC4CCCC4)s3)CC2=O)cc1 (stereo not given) | 0.6% | 2 | -4 | -1 | ? | -5.3 | 1
Cc1nc2c(cc1C#N)C(=O)c1ccccc1-2 | 9.8% | -8 | -15 | 0 | -16% | -9.4 | 1
COc1ccc(Nc2ncnc3sccc23)cc1OC | -0.7% | 7 | 1 | -11 | 2% | 0.6 | -7
COc1cc(/C=N/NC(=O)C(=O)Nc2ccccn2)ccc1O | 4.7% | -17 | 5 | -7 | 5% | -5.4 | 1
CCN(CC)CC(=O)Nn1c(C)nc2c(ncn2-c2ccccc2)c1=O | 1.3% | 10 | -15 | 12 | 5% | -4.6 | .
CN1CCN(c2nc3c(c(=O)n(C)c(=O)n3C)n2CCSc2nc3ccccc3s2)CC1 | 0.8% | -1 | -9 | 4 | -5% | -6.1 | 0
COc1cc(-c2nnc3sc(-c4cccs4)nn23)cc(OC)c1OC | 3.3% | 19 | 1 | -28 | 0% | -0.7 | ?
CCn1c(Oc2ccc(F)cc2)nc2c1c(=O)n(C)c(=O)n2C | 0.4% | 0 | -1 | -2 | 8% | -1.7 | 0
O=C(CN(Cc1cccs1)S(=O)(=O)c1ccc(S(=O)(=O)NC2CCCCC2)cc1)Nc1ccccc1 | -0.6% | -10 | -6 | 0 | 12% | -0.1 | 1
O=C(Nc1ccccc1F)c1coc(=O)c(Br)c1 | 4.3% | 9 | 5 | ? | 1% | -4.6 | 20
O=C(NC(NC(=O)c1ccccc1)c1ccccc1)c1ccccc1 | 0.4%[38.3 µM] | -1 | -16 | -3 | 2% | 0.0 | 0
N#C/C(=C\c1ccccc1)C(=O)OCC(=O)N1CCCC1 | 2.2% | ? | -3 | -1 | 13% | -5.9 | 7
COc1ccccc1CNC(=O)COC(=O)Cc1ccsc1 | 3.4% | -11 | -2 | 11 | 21% | -0.8 | 6
N=c1n(CC(=O)c2ccc([N+](=O)[O-])cc2)c2ccccc2n1Cc1ccc(Cl)cc1 | -2.7% | 15 | 2 | -11 | ? | 0.1 | -9
O=C(NC1CC1)C1=C[C@@H](c2coc3ccccc3c2=O)C[C@@H](OCCCCO)O1 | 6.0% | -16 | 0 | 1 | 5% | 0.9 | 0
O=C(O)Cc1sc(Nc2ccc(Cl)cc2)nc1-c1cccs1 | -0.2% | -1 | 6 | -5 | 1.3µM* | 6.7 | 6
Cc1ccc(C)c(N2CCN(C(=O)Nc3ccc4c(c3)N(C)C(=O)CS4)CC2)c1 | 7.1% | -17 | -7 | -4 | 7% | 1.1 | .
O=C1OC(c2ccccc2)=N/C1=C\C=C\c1ccccc1[N+](=O)[O-] | 1.2% | -4 | -12 | 1 | -1% | -5.9 | 5
Cc1ccc(C)c(N2CCN(C(=O)Cn3c(=O)[nH]c4ccsc4c3=O)CC2)c1 | 0.0% | -22 | -16 | -1 | 2% | 0.9 | -8
O=C(O)c1ccccc1C(=O)Nc1ccc(-n2nccc2C(F)(F)F)cc1 | 4.9% | 15 | -16 | 1 | 1% | -4.3 | .
Cc1cc(C2=NNC(=NC3CC3)SC2)c(C)n1-c1ccccc1 | 40µM* | -4 | -9 | -6 | -28% | -8.0 | .
COc1ccc(/C=N/N2CCN(C)CC2)cc1O | 0.7% | 8 | -3 | 3 | ? | -4.1 | 9
COc1ccc(C(=O)N/N=C/c2ccc(OC)c(CSc3ccccn3)c2)cc1 | 1.2% | ? | -3 | -4 | 4% | -2.5 | 0
Nc1c2nc(-c3ccccc3Cl)[nH]c(=O)c2nc(=O)n1-c1ccccc1 | 4.5% | 9 | -13 | -11 | 0% | -4.2 | -3
O=C(Nc1cccc(F)c1)C1CC(=O)N(c2ccc(Cl)cc2)C1 (stereo not given) | -1.8% | 1 | -18 | -1 | 3% | -3.4 | 0
COc1ccc(NC(=O)N(C)C[C@H]2Oc3c(NS(=O)(=O)c4cn(C)cn4)cccc3C(=O)N([C@H](C)CO)C[C@@H]2C)cc1 | 0.8% | . | . | -1 | . | 1.0 | 2
O=[N+]([O-])c1ccc(Cl)c(S(=O)(=O)Nc2cccc(-c3ccc(N4CCCC4)nn3)c2)c1 | 1.8% | ? | ? | -29 | . | 6.6 | -14
Cc1ccc(C(=O)NCCN2C3=NC[C@H](C(C)C)N3C[C@H]2Cc2ccc(O)cc2)cc1Br | 1.9% | -3 | -23 | -14 | 13% | -1.8 | -19
NS(=O)(=O)c1ccc(N=NN2CCCCC2)cc1 | -0.4% | 0 | -6 | 2 | 3% | 0.3 | -1
CC/C(=C\C(=O)c1ccncc1)Nc1ccc(Br)cc1 | -2.2% | 1 | -11 | -21 | -14% | -2.6 | -9
CCN1CCN(S(=O)(=O)c2cc(OC)c(Cl)cc2OC)CC1 | . | -9 | -29 | 3 | 11% | 0.1 | 6
Cc1[nH]c2ccccc2c1SCCNC(=O)c1ccc(S(=O)(=O)N2CCCC2)cc1 | 0.0% | 5 | 0 | -10 | 5% | 0.5 | -5
CCCC(=O)Nc1ccc(C(=O)Nc2ccc([N+](=O)[O-])cc2OC)cc1 | 1.2% | 4 | -7 | 1 | -17% | 3.1 | -3
CCCCCn1c(Sc2ccccc2)nc2c1c(=O)[nH]c(=O)n2C | 1.1% | -39 | -7 | 3 | -5% | -1.2 | 0
Cc1ccc(-n2c(=S)[nH]c3c(oc4ccccc43)c2=O)cc1 | 1.3% | 13 | 5 | 4 | -9% | -3.8 | -2

Structures shown so far with fluorine:
SMILES | PINK1 modulator | TRPV1 potentiator | D2 potentiator | Six1-Eya2 blk | Sfp PPTase inh | D2 agonist | CtBP-E1A inh
CCn1c(Oc2ccc(F)cc2)nc2c1c(=O)n(C)c(=O)n2C | 0.4% | 0 | -1 | -2 | 8% | -1.7 | 0
O=C(Nc1ccccc1F)c1coc(=O)c(Br)c1 | 4.3% | 9 | 5 | ? | 1% | -4.6 | 20
O=C(O)c1ccccc1C(=O)Nc1ccc(-n2nccc2C(F)(F)F)cc1 | 4.9% | 15 | -16 | 1 | 1% | -4.3 | .
O=C(Nc1cccc(F)c1)C1CC(=O)N(c2ccc(Cl)cc2)C1 (stereo not given) | -1.8% | 1 | -18 | -1 | 3% | -3.4 | 0

Source: PubChem (National Center for Advancing Translational Sciences (NCATS))
